RE007 growth inh = qHTS Assay for Inhibitors of the HIV-1 protein Vpr; Potency, µM (highest dose often 92.2 µM), inactives show top-dose activity change, negative = less growth; 360,000 tested, 0.21% active; S. pombe RE007 Vpr strain, BacTiter-Glo ATP luminescence, 24 h; control for the full effect not named in the record; active = well fitted falling curve with a large enough effect; inconclusive = small, poorly fitted or top-dose-only effect; inactive = no such curve, though single readings can be large or run the other way;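 note: % is set by controls: 0 for no effect and ±100 for the full control effect; nearly all actives have a fitted effect of over 50% in size; the assay follows cell death caused by Vpr and the record does not say whether a fall means rescue or toxicity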
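Fission yeast strain RE007, carrying one chromosomally integrated HIV-1 vpr copy, was seeded at OD 0.01 in PMG+AL medium with 23 nL pinned compound. After 24 h at 30 °C and 99% humidity, viability was read by BacTiter-Glo luminescence.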
Cruzain inh noDet = qHTS Assay for Promiscuous and Specific Inhibitors of Cruzain (without detergent) | Potency, µM, inactives show max response, negative = inhibition, usual class: inhibitors | AID 1476, 2009 | 200,000 tested, 2.3% active | purified cruzain, Z-FR-AMC fluorescence, no detergent;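 note: plate controls were enzyme without inhibitor for no effect and buffer without enzyme for full effect; nearly all actives have a fitted effect of over 40% in size; top concentration of the series not given in the record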
Target sequence (P25779 123-467 limits assumed): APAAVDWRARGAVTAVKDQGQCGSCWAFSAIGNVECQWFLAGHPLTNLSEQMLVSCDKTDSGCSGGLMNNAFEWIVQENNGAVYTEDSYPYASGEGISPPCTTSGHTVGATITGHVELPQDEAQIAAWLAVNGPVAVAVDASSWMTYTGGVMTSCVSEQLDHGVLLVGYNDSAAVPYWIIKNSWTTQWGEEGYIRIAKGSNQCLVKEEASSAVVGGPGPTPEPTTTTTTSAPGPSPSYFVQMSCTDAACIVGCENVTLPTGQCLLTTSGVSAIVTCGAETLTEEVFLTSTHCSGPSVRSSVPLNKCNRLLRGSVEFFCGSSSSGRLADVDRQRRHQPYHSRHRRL
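Detergent-free condition (0.00005% Triton X-100) in acetate buffer pH 5.5 with DTT. 1.5 nM enzyme and compound were pre-mixed 15 min, then 2 uM Z-FR-AMC substrate added; reaction progress from fluorescence change between first and third reads (60 s).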
Marburg entry inh = qHTS for inhibitors of binding or entry into cells for Marburg Virus. Marburg virus pseudotyped entry inhibition, cell reporter; control for the full effect not named in the record; about a third of the inactives were read at about 46 µM. Potency, µM (highest dose often 37.8 µM), without a hit: at the highest dose activity change, negative = inhibition, hits mostly inhibitors. 300,000 tested, 1.8% active. AID 540276, 2011; active = well fitted inhibition curve with a large enough effect; inconclusive = small, poorly fitted or top-dose-only effect, or effect the other way; inactive = flat fitted curve, though single readings scatter; tested in HEK293 cells; about a fifth of its hits are not listed in these tables; note: % is set by controls: 0 for no effect and ±100 for the full control effect; luciferase read-out
StopGo reporter = High Throughput Screening for Foot and Mouth Disease Virus Antivirals; Potency, µM (series often up to 57.9 µM), for the others: at the top dose signal change, negative = less light; human cells with a luciferase reporter of 2A StopGo recoding; control for the full effect not named in the record; 410,000 tested, 1.2% active; AID 1159524, 2015; active = well fitted falling curve with a large enough effect; inconclusive = small, poorly fitted or top-dose-only effect; inactive = no such curve, though single readings can be large or run the other way; tested in HEK293T cells; note: % is set by controls: 0 for no effect and ±100 for the full control effect; nearly all actives have a fitted effect of over 45% in size; luciferase light after 4 h
Lassa entry inh = qHTS for Inhibitors of binding or entry into cells for Lassa Virus; Potency, µM (highest dose often 37.9 µM), without a hit: at the top dose activity change, negative = inhibition, usual class: inhibitors; 300,000 tested, 1.2% active; Lassa virus pseudotype entry inhibition, cell reporter; control for the full effect not named in the record; active means well fitted inhibition curve with a large enough effect; inconclusive means small, poorly fitted or top-dose-only effect, or effect the other way; inactive means flat fitted curve, though single readings scatter; tested in HEK293 cells; note: % is set by controls: 0 for no effect and ±100 for the full control effect; nearly all actives have a fitted effect of over 50% in size; luciferase read-out
Cruzain inh Det = qHTS Assay for Promiscuous and Specific Inhibitors of Cruzain (with detergent) | 200,000 tested, 0.43% active | Cruzipain (Trypanosoma cruzi), P25779 | purified cruzain, Z-FR-AMC fluorescence, 0.01% Triton | Potency, µM, for the others: max response, negative = inhibition, hits mostly inhibitors;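 note: plate controls were neutral wells for no effect and buffer without enzyme for full effect; nearly all actives have a fitted effect of over 40% in size; top concentration of the series not given in the record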
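In this qHTS format, compounds are incubated with 1.5 nM cruzain for 15 min at room temperature before 2 uM Z-FR-AMC is added. Release of AMC is followed at 360/450 nm, and progress is taken as the 60 s fluorescence difference.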
SARS PLpro yeast = qHTS of Yeast-based Assay for SARS-CoV PLP | AID 485353, 2010 | 330,000 tested, 0.19% active | Potency, µM (highest dose often 32.9 µM), without a hit: top-dose activity, positive = growth rescue | S. cerevisiae expressing SARS-CoV PLpro, growth rescue; control for the full effect not named in the record; active means well fitted rising curve with a large enough effect; inconclusive means small, poorly fitted or top-dose-only effect; inactive means no such curve, though single readings can be large or run the other way; note: 0% is about no effect; nearly all actives have a fitted effect of over 55% in size; growth read by luminescence after 48 h
NS1 function inh = qHTS Assay for Inhibitors of Influenza NS1 Protein Function; S. cerevisiae slowed by influenza A NS1, growth recovery by OD600; Potency, µM (top dose mostly 46.1 µM), inactives show top-dose activity, positive = more growth; 270,000 tested, 0.4% active; AID 2326, 2010; active means well fitted rising curve with a large enough effect; inconclusive means small, poorly fitted or top-dose-only effect; inactive means no such curve, though single readings can be large or run the other way; note: nearly all actives have a fitted effect of over 50% in size
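Compounds were scored for reversing the slow growth caused by influenza A NS1 in S. cerevisiae, measured by optical density at 600 nm. Assay medium contained 2% galactose at pH 6.0; NS1-free yeast of the same strain were the positive control.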
Starred values were filed as active, the others as inactive; u = inconclusive; x = no result given; & = joins results of further samples; [ ] = dose if it differs, or a comment. Unless noted, calls come from the whole dose curve; as a rule, active = well fitted curve in the direction sought with a large enough effect; inconclusive = small, poorly fitted or top-dose-only effect, or another doubt; inactive = no such curve, though single readings can be large; an effect the other way counts as inactive or inconclusive. Potency is the fitted concentration of half-maximal effect.

SMILES	RE007 growth inh	Cruzain inh noDet	Marburg entry inh	StopGo reporter	Lassa entry inh	Cruzain inh Det	SARS PLpro yeast	NS1 function inh
COc1ccc(-c2nc3cc(NC(=O)Cc4ccc(OC)c(OC)c4)ccc3o2)cc1	-13%	u	u	u	-20%	-4.6%	3%	26%
COc1ccc(NC(=O)COC(=O)C23CC4CC(CC(NC(C)=O)(C4)C2)C3)cc1S(=O)(=O)N1CCOCC1	-15%	x	16%	-17%	6%	x	0%	x
Cc1ccc(-c2cn3cccc(C)c3n2)cc1NS(=O)(=O)c1ccccc1	x	1%	13%[46.1 µM]	19%	-11%[46.1 µM]	-1.7%	x	x
CCCCCCc1cc2cc(C(=O)NC)c(=N)oc2cc1O	-11%	u	-2%&-2%	-11%	-15%	-8.8%	-7%	-23%
CO/N=C/C(C#N)=C/c1ccc(OC)c(OC)c1	-8%	x	-6%[46.1 µM]	-1%	2%[46.1 µM]	x	0%	x
CN1C(=O)NC(c2ccccc2Cl)C2=C1CC(C)(C)CC2=O (stereo unspecified)	1%	x	21%[46.1 µM]	-7%	1%[46.1 µM]	x	1%	-3%
O=C(NCc1cccs1)C1CC(c2ccc(Cl)c(Cl)c2)=NO1 (stereo unspecified)	-6%	x	x	12%	x	x	0%	1%
CCOC(=O)CNC(=O)CNC(=O)Cn1ccc2ccccc2c1=O	15%	-2%	0%	-7%	-13%	5.5%	4%	6%
COC(=O)c1cnn2c(C(F)(F)F)cc(-c3ccccc3)nc12	-16%	-1%	u	0%	7%	-20%	15%	1%
Cc1cccc(NC(=O)OC2CN3CCC2CC3)c1 (stereo unspecified)	-12%	x	4%[46.1 µM]	13%	11%	x	-1%	1%
COc1ccc(N2CCN(S(=O)(=O)c3ccc(-c4cc(C)no4)s3)CC2)cc1	11%	x	u	-6%	0%[46.1 µM]	x	4%	-2%
O=c1[nH]cnc2c1ncn2[C@@H]1O[C@H](CO)[C@@H](O)[C@H]1O	17%	1%	6%	-27%&0%	10%	2.5%	1%	-7%
O=C(O)C1CCN(c2ccc(S(=O)(=O)N3CCOCC3)cc2[N+](=O)[O-])CC1	9%	x	3%[46.1 µM]	-12%	-19%	x	1%	x
COc1ccc(C(=O)n2ccc(C)n2)cc1Br	x	-7%	1%	x	x	-2.0%	-7%	-38%
Cc1nonc1OCC(C)(COc1nonc1C)NC(=O)c1ccc(Cl)cc1	0%	-1%	10%	-23%	2%	-4.7%	23%	-1%
CCN(CC)CCCNc1ncnc2ccccc12	6%	x	u	-3%	-2%[46.1 µM]	x	1%	2%
COc1ccc(C(=O)Cc2ccc(OC)c(OC)c2)c(OC)c1	2%	9%	-29%	x	-3%	-1.7%	-6%	-9%
COC(=O)c1cc(Cl)cc2c(C)c(C3(O)CCCCC3)[nH]c12	-25%	x	x	u	x	x	-22%	-60%
COC(=O)c1ccc(COC(=O)C23CC4CC(CC(O)(C4)C2)C3)o1	-6%	5%	7%	20%	1%	3.9%	1%	-12%
CCOC(=O)c1c(C)[nH]c(C(=O)N/N=C\c2ccccc2Cl)c1C	-2%	29%	-27%	-17%	u	-7.8%	11%	6%
COc1cc(C(=O)NCC(=O)OC(C)C(=O)Nc2ncc(Cl)cc2Cl)cc(OC)c1OC (stereo unspecified)	2%	x	29%[46.1 µM]	-18%	4%	x	1%	x
COc1ccc(C)cc1NC(=O)CSc1nnc(COc2ccc(Cl)cc2)n1Cc1ccco1	5%	5%	u	-28%	-21%	-4.4%	-20%	-53%
O=S(=O)(Nc1cc(Cl)ccc1N1CCCCC1)c1cccs1	-7%	-2%	2%	-4%	0%	5.2%	-16%	-11%
COc1ccccc1NS(=O)(=O)c1ccc(C(=O)N2CCCCCC2)cc1	-20%	x	u	u	-15%	x	-7%	x
COc1ccc(OCC(=O)N/N=C/C(C)=C/c2ccco2)c(Br)c1	-10%	x	-15%[46.1 µM]	33%[activator]	u	x	1%	-5%
O=C(O)c1ccccc1C(=O)N1N=C(c2ccccc2)CC1c1ccccc1O (stereo unspecified)	13%	x	x	22%	x	x	4%	u
CC1CCN(C(=O)CN(c2ccc3c(c2)OCCO3)S(=O)(=O)c2ccccc2)CC1	12%	x	u	103%[activator]	13%	x	4%	10%
COc1ccc(NC(=O)CN2CCCN(Cc3ccc(Cl)cc3)S2(=O)=O)cc1Cl	x	-18%	29%[46.1 µM]	0%	-2%[46.1 µM]	-6.7%	x	x
CCn1c(=O)cc(SCC(=O)N2CCCCC2)c2ccccc21	14%	7%	2%	0%	4%	-0.2%	-3%	-6%
COc1ccc(CCNS(=O)(=O)c2ccc([N+](=O)[O-])cc2)cc1OC	-3%	x	x	-1%	x	x	-2%	11%
Cc1cc(C(=O)Nn2c(C)nc3ccccc3c2=O)ccc1[N+](=O)[O-]	18%	x	-3%[46.1 µM]	-15%	-2%[46.1 µM]	x	0%	x
N#Cc1nc(-c2ccco2)oc1NCc1cccnc1	15%	-3%	-3%	x	1%	-3.7%	-9%	u
CC1CCc2c(sc(NC(=O)Cc3ccccc3)c2C(=O)Nc2ccc(Cl)cc2)C1 (stereo unspecified)	x	16%	x	-10%	17%[46.1 µM]	0.5%	x	x
O=C(CSc1nc2c([nH]c3ccccc32)c(=O)n1-c1ccc(Cl)cc1)c1ccccc1	x	-9%	x	-10%	27%[46.1 µM]	-0.2%	x	x
Cc1ccc(NC(=O)C2SC(=Nc3ccccc3)C(C(=O)Nc3ccc(Cl)cc3)=C2N)cc1 (stereo unspecified)	7%	x	u	14%	u	x	0%	9%
COc1ccccc1NC(=O)Nc1ccnn1C1CCN(C(=O)c2cccnc2)CC1	6%	x	x	0%	x	x	2%	0%

Four of the compounds above, in CSV form.
Compound,RE007 growth inh,Cruzain inh noDet,Marburg entry inh,StopGo reporter,Lassa entry inh,Cruzain inh Det,SARS PLpro yeast,NS1 function inh
O=C(CSc1nc2c([nH]c3ccccc32)c(=O)n1-c1ccc(Cl)cc1)c1ccccc1,x,-9%,x,-10%,27%[46.1 µM],-0.2%,x,x
COc1ccc(NC(=O)CN2CCCN(Cc3ccc(Cl)cc3)S2(=O)=O)cc1Cl,x,-18%,29%[46.1 µM],0%,-2%[46.1 µM],-6.7%,x,x
Cc1ccc(NC(=O)C2SC(=Nc3ccccc3)C(C(=O)Nc3ccc(Cl)cc3)=C2N)cc1 (stereo unspecified),7%,x,u,14%,u,x,0%,9%
CCn1c(=O)cc(SCC(=O)N2CCCCC2)c2ccccc21,14%,7%,2%,0%,4%,-0.2%,-3%,-6%

(continued)
SMILES	RE007 growth inh	Cruzain inh noDet	Marburg entry inh	StopGo reporter	Lassa entry inh	Cruzain inh Det	SARS PLpro yeast	NS1 function inh
O=C(Cn1ncc2c([nH]c3ccccc32)c1=O)Nc1ccc(F)cc1F	6%	x	7%[46.1 µM]	19%	-4%[46.1 µM]	x	u	-14%
Cc1ccc(CN2CCC(C(=O)Nc3cccc(-c4cccc(F)c4)c3)CC2)o1	-10%	x	x	-20%	x	x	-4%	-5%
CN1CCc2[nH]c3ccc(C(=O)NN)cc3c2C1	2%	-7%	-5%	-10%	-5%	0.9%	1%	8%
Cc1ccc(CNC(=O)COC(=O)CSc2ccc(Br)cc2C)cc1	6%	11%	u	-8%	3%	-9.7%	-24%	-16%
COc1ccc(CNc2nc(NCc3ccc(OC)cc3)n(C(=O)c3ccncc3)n2)cc1	-7%	x	x	-1%	x	x	-1%	14%
O=C(O)c1cn(-c2ccc(N3CCCC3)c(F)c2)c2c(F)c(F)c(F)cc2c1=O	3%	x	12%[46.1 µM]	-25%	5%[46.1 µM]	x	2%	x
Cc1cc(C)c(/C=C/c2onc(C)c2S(=O)(=O)N2CCC(C(=O)NCc3ccco3)CC2)c(C)c1	x	2%	x	-20%	-16%[46.1 µM]	-3.5%	x	x
CN(C(=O)Cc1csc(-c2ccccc2)n1)c1c(N)n(Cc2ccccc2)c(=O)[nH]c1=O	-6%	x	-1%	0%	-8%	x	-2%	x
COc1ccc(Cl)cc1C(=O)Nc1cc(=O)n(C)c(=O)n1C	-4%	x	x	-7%	x	x	0%	3%
COc1ccc(N2CCN(C(=O)Cn3cnc4sc(C)c(S(=O)(=O)N5CCC(C)CC5)c4c3=O)CC2)cc1	x	u	u	u	18%[46.1 µM]	-6.0%	x	x
Cc1cc(C(=O)COC(=O)c2ccc(O)cc2)c(C)n1-c1ccccc1F	2%	x	u	4%	u	x	1%	x
Cc1ccc2sc(N(CCCN(C)C)C(=O)CCS(=O)(=O)c3ccccc3)nc2c1C	-11%	x	x	32µM*	x	x	-5%	-32%
CC(=O)c1ccc(NC(=O)C(C)n2nc(-c3ccccc3)ccc2=O)cc1 (stereo unspecified)	x	4%	19%[46.1 µM]	0%	0%[46.1 µM]	-7.2%	x	x
CCCCn1c(=N)c(S(=O)(=O)c2ccc(Br)cc2)cc2c(=O)n3cccc(C)c3nc21	10%	x	5%[46.1 µM]	0%	11%[46.1 µM]	x	2%	0%
NC(=O)CSc1nnc(NC(=O)c2ccc(Br)o2)s1	3%	x	x	45%[activator]	x	x	2%	1%
CC(C)C(NC(=O)c1ccccc1)C(=O)N1CCCCCC1 (stereo unspecified)	1%	x	-25%[46.1 µM]	7%	9%[46.1 µM]	x	-2%	3%
CCOC(=O)c1sc2nc(C)nc(Nc3ccc(OC)cc3)c2c1C	-11%	x	u	-5%	16%	x	1%	-3%
Cc1cccc(NC(=O)c2ccc3c(c2)OCCO3)c1	-26%	x	7.9µM*	-37%	u	x	-7%	-27%
O=C(c1ccccc1)N1CCC(O)(c2cccnc2)CC1	x	-11%	-6%	-2%	x	-3.3%	x	7%
Cc1cccc(-c2cc(C(=O)Nc3cccnc3)c3ccccc3n2)c1	0%	x	-25%	-14%	-29%	x	-10%	-41%

Source: PubChem BioAssay
